Screening data as filed in PubChem BioAssay.
Sa growth 42C – S. aureus growth inhibition at 42 and 30 °C, primary screen, LtaS inhibitor project, RN4220, two temperatures | OD600, 20 h, 42 °C; stronger effect = lower value | actives 0.53% (n = 170,000) | relative growth, % (concentration not given with the values);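 active = growth at 42 °C up to 50% and 20 or more points under that at 30 °C, or under 10% at both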;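 also: 300 nL library stock went into each well; scaled to the means of positive and negative controls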
GIV-Gai inh – inhibitors of GIV peptide binding to Galpha-i3, primary screen, biochemical, fluorescence polarization, FITC-GIV GBA peptide, rat Galphai3; percent of control (FP), % (concentration not given with the values); 90 min; stronger effect = lower value; scaled: aluminum fluoride 0%, vehicle 100%; Guanine nucleotide-binding protein G(i) subunit alpha-3 (Rattus norvegicus), P08753; actives 0.42% (n = 210,000);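 active = replicate mean at 85% of control or lower, very high polarization wells dropped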;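 also: wells of about 15 µL received 100 nL stock; the first replicate is given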
Target sequence (P08753 whole entry, looked up): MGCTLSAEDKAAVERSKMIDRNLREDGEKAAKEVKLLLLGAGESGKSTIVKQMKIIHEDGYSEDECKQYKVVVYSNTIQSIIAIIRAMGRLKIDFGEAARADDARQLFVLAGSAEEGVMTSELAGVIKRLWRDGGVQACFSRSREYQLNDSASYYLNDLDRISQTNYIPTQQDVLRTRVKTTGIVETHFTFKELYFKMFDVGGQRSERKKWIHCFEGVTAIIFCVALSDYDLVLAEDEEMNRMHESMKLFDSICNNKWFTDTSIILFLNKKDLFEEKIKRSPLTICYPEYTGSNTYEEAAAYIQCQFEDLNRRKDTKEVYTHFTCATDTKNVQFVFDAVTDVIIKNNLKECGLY
HCMV UL50-53 inh – inhibitors of HCMV UL50-UL53 interaction, biochemical, HTRF | normalized percent inhibition | inhibition, % (concentration not given with the values) | actives 0.15% (n = 190,000);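 active = both replicates at 50% or more, plus weaker picks with an unusually low signal ratio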;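 also: stock transfer was 100 nL into about 20 µL; 0% = negative control wells and 100% = wells with untagged competitor protein; inactives centre near -12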
Sa growth 42C second temp – further read-out of Sa growth 42C, marked with its call; relative growth, %; measured here: growth at 30 °C;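 optical density after 20 h as mean of two plates; 100% = untreated growth and lower means inhibition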
* marks the source's active call; other numbers are inactive results; . = no result given; & = joins results of further samples. Compounds were not picked by outcome; 0.83% or so of the library scored in one or more.

Field names – A = Sa growth 42C; B = Sa growth 42C second temp; C = GIV-Gai inh; D = HCMV UL50-53 inh
#1 O=S(=O)(NCc1ccccc1)c1cccc(C(F)(F)F)c1
  A: 91	B: 91	C: .	D: -6

#2 CCc1nnc2sc(CCc3c(C)nn(-c4ccccc4)c3C)nn12
  A: .	B: .	C: 99	D: 5

#3 Cc1oc2ncnc(NC3CCCC3)c2c1C(=O)O
  A: 108	B: 86	C: 105	D: -21

#4 CCS(=O)(=O)Nc1c(NC)c2ccccc2oc1=O
  A: 97	B: 89	C: 101	D: -21

#5 CC(C(=O)O)N1C(=O)CSc2ncccc21 (stereo unspecified)
  A: 117	B: 90	C: 102	D: -12

#6 OC(Cn1cncn1)c1ccc(Cl)cc1Cl (stereo unspecified)
  A: 109	B: 94	C: 101	D: -7

#7 COc1cc(NC(=O)C2CC(=O)NC3=C2C(=O)CC(C)(C)C3)c(OC)cc1Cl (stereo unspecified)
  A: 97	B: 85	C: 100	D: .

#8 Cc1ccc(N2C(=O)C(Cc3ccccc3)N=C2N2CCN(C)CC2)cc1C (stereo unspecified)
  A: .	B: .	C: 102	D: -31

#9 Cc1ccc(C)c(NC(=O)C2=Cc3ccc(C)cc3OC=C2)c1
  A: .	B: .	C: 102	D: 3

#10 CCN(CC)S(=O)(=O)c1ccc2c(c1)N(CC(=O)NCCCN1CCN(c3cc(C)ccc3C)CC1)C(=O)CO2
  A: 130	B: 89	C: 109	D: .

#11 CCN(c1ccccc1)S(=O)(=O)c1ccc(NC(=O)c2cc(=O)c3ccccc3o2)cc1
  A: 104	B: 83	C: 101	D: -25

#12 CCCNS(=O)(=O)c1ccc(CCC(=O)NCC2CCCO2)cc1 (stereo unspecified)
  A: 101	B: 83	C: 103	D: -7

#13 CC1Cc2ccccc2N1C(=O)CCN1C(=O)C2C3C=CC(C3)C2C1=O (stereo unspecified)
  A: 127	B: 91	C: 102	D: .

#14 CCOC(=O)c1cc(CC)sc1NC(=O)CCn1c(=O)oc2ccccc21
  A: .	B: .	C: 96	D: -5

#15 Cn1nc(C(F)(F)F)c(C(=O)Nc2ccc(F)cc2F)c1Cl
  A: .	B: .	C: 101	D: 10

#16 Cc1ccc(-n2c(=O)oc3ccc(Cl)cc3c2=O)cc1
  A: 68	B: 33	C: 101	D: -21

#17 CCCSc1nnc2c(n1)OC(c1ccc(N(C)C)cc1)Nc1ccccc1-2 (stereo unspecified)
  A: 91	B: 80	C: 98	D: -25

#18 Cc1ccc2c(c1)c(=O)c1ccccc1n2CC(=O)Nc1cc(Oc2ccc(Cl)c(C)c2)cc([N+](=O)[O-])c1
  A: .	B: .	C: 108	D: 8

#19 NS(=O)(=O)c1ccc(NC(=O)c2c(-c3ccccc3)c(-c3ccccc3)n[nH]c2=O)cc1
  A: .	B: .	C: 106	D: -42

#20 O=C(C1CCN(c2nccc(C(F)(F)F)n2)CC1)N1C=CC(C(F)(F)F)=NCC1
  A: 98	B: 88	C: 98	D: -18

#21 O=c1ccc(-c2ccccc2)n[nH]1
  A: 81	B: 94	C: 103	D: -25

#22 CCCCn1c(SCC(=O)Nc2ccccc2C(=O)OC)nc2ccsc2c1=O
  A: 100	B: 91	C: 101	D: 6

#23 CCc1cc2c3c(c1)C1(C(=O)N3C(C)(C)CC2C)C(C#N)=C(N)N2C(=C1C#N)Nc1ccccc12 (stereo unspecified)
  A: 97	B: 108	C: 106	D: 1

#24 CCc1nnc2c(NC)nc3ccccc3n12
  A: 91	B: 89	C: 107	D: -19

#25 COc1ccc(NC(=O)c2c(C)oc3ccc(O)c(CN4CCC(C)CC4)c23)cc1
  A: 111	B: 82	C: 102	D: -1

#26 CCCCCCCCCN=Cc1sc2ccc(OCC)cc2c1O
  A: .	B: .	C: 107	D: 18

#27 Cc1n[nH]c(C)c1Oc1ccc(Cl)cc1
  A: 124	B: 105	C: 98	D: 9

#28 O=C1CCCC2(O)C1C(c1ccc(Cl)cc1Cl)NC(=O)N2Cc1ccccc1 (stereo unspecified)
  A: 102	B: 108	C: .	D: 13

#29 Fc1cccc(/C=N/n2cnnc2)c1
  A: 110	B: 79	C: .	D: -35

#30 Cc1c(Cl)cccc1N1CC(c2nc3ccccc3n2Cc2ccccc2F)CC1=O (stereo unspecified)
  A: 119	B: 84	C: 105	D: -10

#31 CCNC(=O)c1ccc(OCc2c(C)noc2C)c(OC)c1
  A: 83	B: 90	C: .	D: -4

#32 COC(=O)CC1C(=O)NCCN1S(=O)(=O)c1c(C)c(C)c(C)c(C)c1C (stereo unspecified)
  A: 89	B: 88	C: .	D: -28

#33 CCOc1ccccc1Nc1c(C(=O)N2CCOCC2)cnc2ccccc12
  A: .	B: .	C: 104	D: -2

#34 CC(=O)[C@@]1(O)CC[C@H]2[C@@H]3CCC4=CC(=O)CC[C@]4(C)[C@H]3CC[C@@]21C
  A: 91	B: 79	C: 105&101	D: -10&-11

#35 COC(=O)c1ccc(C(=O)Nc2ccc3nc(C4CCCCC4)[nH]c3c2)cc1
  A: 88	B: 72	C: 102	D: .

#36 COc1ccc(OCCN2CCN(C3CC(=O)N(CCC(C)C)C3=O)CC2)cc1 (stereo unspecified)
  A: 118	B: 93	C: .	D: 16

#37 Cc1ccc(C)c(CN2C(=O)c3ccccc3S(=O)(=O)c3ccc(C(=O)N4CCN(c5ccccc5F)CC4)cc32)c1
  A: 123	B: 105	C: 105	D: -23

#38 COc1cc(NC(=O)CNS(=O)(=O)c2cccs2)cc(OC)c1OC
  A: 118	B: 73	C: 110	D: .

#39 Cc1ccc(S(=O)(=O)NN=C(Cn2nnc3ccccc32)Cn2nnc3ccccc32)cc1
  A: 114	B: 90	C: .	D: -11

#40 Cc1ccc(Nc2nc(N)nc(CSc3cc(C)c4ccccc4n3)n2)cc1
  A: 138	B: 90	C: .	D: -10

#41 COc1cc(Cl)c(C)cc1Nc1nc2ccccc2nc1NS(=O)(=O)c1ccccc1
  A: 106	B: 85	C: 158	D: 23

#42 CC1(c2ccccc2)CC1(Br)Br (stereo unspecified)
  A: 89	B: 84	C: 100	D: -12

#43 Cc1ccc(SCC(=O)NC2CC2)cc1
  A: 102	B: 95	C: 105	D: -6

#44 CCC1(CC)C(=O)NC(=O)N=C1N
  A: 104	B: 100	C: 104	D: 1

#45 CC1CCN(Cc2c(O)ccc3c(=O)c(Oc4ccccc4Cl)c(C(F)(F)F)oc23)CC1
  A: 98	B: 82	C: 98	D: -27

#46 COc1ccc(NC(=O)COc2ccccc2)cc1CN1CCn2c(nc3ccccc32)C1
  A: .	B: .	C: 102	D: -21

#47 CCOC(=O)CSc1ccc2nnc(-c3ccccc3)n2n1
  A: 100	B: 66	C: 98	D: -9

#48 COc1ccc(NCc2cc3cc4c(cc3n(CC(=O)Nc3ccc(C)cc3)c2=O)OCO4)cc1
  A: 93	B: 93	C: 101	D: .

#49 CCCCNC(=O)Cn1c(=O)cc(C)c2c(C)nn(-c3ccc(CC)cc3)c21
  A: 93	B: 96	C: 96	D: .

#50 CC1=C(C(=O)OCc2ccc3c(c2)OCO3)C(c2ccccc2OC(C)C)NC(=O)N1 (stereo unspecified)
  A: .	B: .	C: 109	D: 4

Going on with the list:
Field names – A = Sa growth 42C; B = Sa growth 42C second temp; C = GIV-Gai inh; D = HCMV UL50-53 inh
#51 COc1ccccc1N1CCN(C(=O)c2cn(C)c3ccc(S(=O)(=O)N4CCOCC4)cc3c2=O)CC1
  A: 96	B: 96	C: 97	D: -20

#52 Cc1cc(C(=O)N=C(N)c2ccc(Cl)cc2)no1
  A: 106	B: 89	C: 104	D: -6

#53 Cc1cccc(C(=O)Nc2cc3c(cc2N2CCCCC2)n(C)c(=O)n3C)c1
  A: 100	B: 91	C: 103	D: 3

#54 COc1cc(CN(C(=O)c2ccc(Cl)cc2)C2CCS(=O)(=O)C2)cc(OC)c1OC (stereo unspecified)
  A: 101	B: 91	C: 104	D: 7

#55 CC(=O)CC1(O)C(=O)N(CN2CCOCC2)c2ccccc21 (stereo unspecified)
  A: .	B: .	C: 109	D: -10

#56 CCOc1ccc(Nc2oc(-c3ccc(COc4ccc(C)cc4)o3)nc2C#N)cc1
  A: 99	B: 82	C: 101	D: -34

#57 Cc1ccc(S(=O)Cc2ccc(C(=O)NC3CCCCCC3)o2)cc1 (stereo unspecified)
  A: 96	B: 90	C: 100	D: 11

#58 CN1CCN(c2ccc(NC(=O)c3ccccc3)cc2)CC1
  A: 103	B: 95	C: 98	D: -2

#59 Cc1ccc(Nc2nc(C)c(NC(=O)c3ccc(C)cc3)c(Nc3ccc(C)cc3)n2)cc1
  A: 108	B: 96	C: 106	D: 9

#60 C#CCOc1ccc(C2CC(=O)Nc3n[nH]c(C)c32)cc1 (stereo unspecified)
  A: .	B: .	C: 102	D: 5

#61 CCOc1ccccc1NC(=O)Cn1cc(C(=O)c2cccc(OC)c2)c(=O)c2ccc(C)nc21
  A: 85	B: 74	C: 111	D: .

#62 CC(Sc1nc2ccccc2[nH]1)C(=O)Nc1ccc(S(N)(=O)=O)cc1 (stereo unspecified)
  A: 91	B: 72	C: 105	D: -19

#63 Cc1ccc(NS(=O)(=O)c2ccc3c(c2)oc(=O)n3C)c(C)c1
  A: .	B: .	C: 105	D: -31

#64 O=C(O)C1C2C=CC(O2)C1C(=O)Nc1ccc(S(=O)(=O)NCCc2ccccc2)cc1 (stereo unspecified)
  A: 118	B: 103	C: 106	D: -6

#65 O=C(O)c1ccc(-n2nc3oc4ccc(Cl)cc4cc-3c2=O)cc1
  A: .	B: .	C: 100	D: -29

#66 CC1(NC(=O)CCN2c3ccccc3Sc3ccccc32)CCS(=O)(=O)C1 (stereo unspecified)
  A: 71	B: 40	C: .	D: -19

#67 COCC(=O)Nc1cc(F)cc(F)c1
  A: 98	B: 61	C: 102	D: -12

#68 Cc1ccc(-c2nnc(Nc3ccccc3)c3ccccc23)cc1S(=O)(=O)NCc1ccccn1
  A: 130	B: 108	C: .	D: -13

#69 COC(=O)c1ccc(N2Cc3cccc(OC)c3Oc3ncccc32)s1
  A: 106	B: 79	C: 121	D: -29

#70 CC(C)(C)C(=O)NC1CCN(CC(=O)N(C2CCCCC2)C2CCCCC2)CC1
  A: 88	B: 95	C: 101	D: -20

#71 COC(=O)C(C#N)(Cc1ccccc1)Cc1ccccc1
  A: 131	B: 102	C: 99	D: -7

#72 Oc1ccc(-c2onc3ccc(Cl)cc23)cc1
  A: 86	B: 86	C: .	D: -21

#73 CCC(Sc1nc2ccccc2n1CC)C(=O)O (stereo unspecified)
  A: 100	B: 87	C: .	D: -3

#74 O=C(NCC1COc2ccccc2O1)c1cc(-c2ccncc2)nc2ccccc12 (stereo unspecified)
  A: 83	B: 84	C: 101	D: -2

#75 Cc1ccnc(NS(=O)(=O)c2cc(-c3cc(C)no3)ccc2C)c1
  A: 91	B: 89	C: 103	D: .

Part of the list above in order of length of the SMILES, high to low.
Field names – A = Sa growth 42C; B = Sa growth 42C second temp; C = GIV-Gai inh; D = HCMV UL50-53 inh
#61 CCOc1ccccc1NC(=O)Cn1cc(C(=O)c2cccc(OC)c2)c(=O)c2ccc(C)nc21
  A: 85	B: 74	C: 111	D: .

#68 Cc1ccc(-c2nnc(Nc3ccccc3)c3ccccc23)cc1S(=O)(=O)NCc1ccccn1
  A: 130	B: 108	C: .	D: -13

#70 CC(C)(C)C(=O)NC1CCN(CC(=O)N(C2CCCCC2)C2CCCCC2)CC1
  A: 88	B: 95	C: 101	D: -20

#63 Cc1ccc(NS(=O)(=O)c2ccc3c(c2)oc(=O)n3C)c(C)c1
  A: .	B: .	C: 105	D: -31

#73 CCC(Sc1nc2ccccc2n1CC)C(=O)O (stereo unspecified)
  A: 100	B: 87	C: .	D: -3

#67 COCC(=O)Nc1cc(F)cc(F)c1
  A: 98	B: 61	C: 102	D: -12

Next section.
Field names – A = Sa growth 42C; B = Sa growth 42C second temp; C = GIV-Gai inh; D = HCMV UL50-53 inh
#76 CCOC(=O)c1nnn(-c2cc(Cl)cc(Cl)c2)c1Sc1ccccn1
  A: 97	B: 94	C: 101	D: -2

#77 C=CCN1C(=O)/C(=c2\sc3n(c2=O)C(c2ccccc2Cl)C(C(=O)OC)=C(C)N=3)c2ccccc21 (stereo unspecified)
  A: .	B: .	C: 105	D: -23

#78 Cc1cc(C)n(CCCO)c(=O)c1C#N
  A: 117	B: 82	C: 102	D: -2

#79 Cn1c(SCC(=O)c2ccc3[nH]c(=O)oc3c2)nnc1C1COc2ccccc2O1 (stereo unspecified)
  A: 83	B: 82	C: .	D: -11

#80 CCOc1ccc(/C(O)=C2/C(=O)C(=O)N(CCN3CCOCC3)C23C(=O)N(C)c2ccccc23)cc1 (stereo unspecified)
  A: 94	B: 96	C: 107	D: 4

Reprinted at random: two compounds from above.
Field names – A = Sa growth 42C; B = Sa growth 42C second temp; C = GIV-Gai inh; D = HCMV UL50-53 inh
#77 C=CCN1C(=O)/C(=c2\sc3n(c2=O)C(c2ccccc2Cl)C(C(=O)OC)=C(C)N=3)c2ccccc21 (stereo unspecified)
  A: .	B: .	C: 105	D: -23

#79 Cn1c(SCC(=O)c2ccc3[nH]c(=O)oc3c2)nnc1C1COc2ccccc2O1 (stereo unspecified)
  A: 83	B: 82	C: .	D: -11
